# Sfp PPTase inh: Sfp phosphopantetheinyl transferase inhibition. 310,000 compounds, 3.5% hits. Q9F4F7. AID 1490. Biochemical Sfp PPTase activity, qHTS. Potency, µM, for the others: max response, negative = inhibition, most hits filed as inhibitors; active means well fitted inhibition curve with a large enough effect; inconclusive means small, poorly fitted or top-dose-only effect, or another doubt; inactive means no such curve, though single readings can be large or run the other way;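 further: the enzyme is Sfp with the accession as filed and its product quenches rhodamine fluorescence; potency means the concentration at half of the fitted maximal effect; 0% = enzyme reaction without inhibitor and -100% = no enzyme wells; top concentration of the series not given in the record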
#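 Compounds were incubated with enzyme (final 15 nM) for 15 min at room temperature before substrate addition started the reaction. Fluorescence at 525 nm excitation, 598 nm emission was recorded immediately and after 30 minutes.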
# ClpP mod: qHTS Assay for Activators of ClpP; purified B. subtilis ClpP, FRET peptide cleavage, 20 min; Potency, µM (titrated, usually from 57.5 µM), without a hit: top-dose activity change, negative = active; AID 651965, 2013; 340,000 compounds, 1.9% hits; ATP-dependent Clp protease proteolytic subunit (Bacillus subtilis (strain 168)), P80244; active = well fitted falling curve with a large enough effect; inconclusive = small, poorly fitted or top-dose-only effect; inactive = no such curve, though single readings can be large or run the other way; further: potency means the concentration at half of the fitted maximal effect; the source files actives as falling curves though it sought activators and does not explain the sign; nearly all actives have a fitted effect of over 65% in size; many hits overshoot -100%
# Target sequence (P80244 whole entry, looked up): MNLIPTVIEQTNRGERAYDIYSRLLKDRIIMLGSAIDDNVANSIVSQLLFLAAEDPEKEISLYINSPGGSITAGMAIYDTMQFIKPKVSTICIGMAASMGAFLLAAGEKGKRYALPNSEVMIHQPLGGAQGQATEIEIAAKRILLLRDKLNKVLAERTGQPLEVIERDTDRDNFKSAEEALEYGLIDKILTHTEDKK
#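 Purified B. subtilis ClpP, 10 microg/mL final in Tris/HCl pH8 with KCl, BSA, glycerol and Tween-20, cleaved an Abz/nitrotyrosine-quenched decapeptide. Fluorescence (ex 320, em 430) was read at 0 and 20 min at room temperature. Delta was normalized to 5.8 microM ADEP and DMSO/no-enzyme controls.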
# gsp antagonist: antagonists of gsp mutant (McCune-Albright syndrome) | gsp-mutant cells, cAMP HTRF, 30 min; control for the full effect not named in the record | Potency, µM (doses to about 76.9 µM), for the others: at the highest dose activity change, negative = inhibition, usual class: inhibitors | 340,000 compounds, 0.4% hits; active = falling curve of any shape with a large fitted effect; inconclusive = falling curve, mostly with a smaller effect; inactive = flat or rising curve; cell line not stated here;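 further: intracellular cAMP measured with PDE inhibitor Ro 20-1724 present during compound exposure; potency means the concentration at half of the fitted maximal effect; on the % scale 0 is the no-effect control and ±100 the full control effect; nearly all actives have a fitted effect of over 65% in size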
#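 G418-selected cells were plated in DMEM/10% FBS for 16-24 h at 37C, then treated with compounds plus the PDE inhibitor […] (300 uM solution added) for 30 min at 37C. Intracellular cAMP was measured by HTRF after 30 min lysis at room temperature.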
# D2 ag: activates the human D2 dopamine receptor; P14416; DiscoveRx PathHunter D2 beta-arrestin, luminescence, 90 min; 100% = 57 uM dopamine signal; activation, % (concentration not given with the values); 360,000 compounds, 0.084% hits; in the data active = activation above about 40%; inconclusive = about 15% to 40%; inactive = below about 15%; further: the text of the record calls up to 30% inactive
# Target sequence (P14416 whole entry, looked up): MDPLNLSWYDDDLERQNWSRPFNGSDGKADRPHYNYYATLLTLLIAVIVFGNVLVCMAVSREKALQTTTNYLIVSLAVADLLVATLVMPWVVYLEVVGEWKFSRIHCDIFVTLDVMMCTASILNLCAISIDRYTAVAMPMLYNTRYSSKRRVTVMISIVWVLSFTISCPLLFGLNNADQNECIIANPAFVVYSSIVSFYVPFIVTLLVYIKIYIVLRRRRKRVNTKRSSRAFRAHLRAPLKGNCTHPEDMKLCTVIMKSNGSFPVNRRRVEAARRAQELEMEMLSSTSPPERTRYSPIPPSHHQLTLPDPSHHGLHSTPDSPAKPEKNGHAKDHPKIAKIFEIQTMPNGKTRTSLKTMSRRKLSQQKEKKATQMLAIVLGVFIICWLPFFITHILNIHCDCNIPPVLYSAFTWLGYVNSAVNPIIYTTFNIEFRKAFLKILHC
#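 Agonist mode: compounds alone added to overnight-plated D2 PathHunter cells for 90 min at 37 C, with 57 uM final dopamine (EC100) defining full response. Beta-arrestin recruitment detected by chemiluminescent reagent, read after 1 h at ambient temperature.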
# gsp ag: agonists of gsp mutant (McCune-Albright syndrome) | gsp mutant cells, cAMP HTRF, 30 min; control for the full effect not named in the record | Potency, µM (series often up to 76.9 µM), inactives show top-dose activation (cAMP increase), actives largely listed as activators | 340,000 compounds, 0.13% hits; active = well fitted activation curve with a large enough effect; inconclusive = small, poorly fitted or top-dose-only effect, or another doubt; inactive = no such curve, though single readings can be large or run the other way; cell line not stated here;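 further: phosphodiesterase inhibitor Ro 20-1724 added with compounds to block cAMP breakdown; potency means the concentration at half of the fitted maximal effect; nearly all actives have a fitted effect of over 60% in size; about a fifth of the inactives were tested at one dose only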
#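 Cells in DMEM/10% FBS with G418 were pretreated with compounds in DMSO plus […] (300 uM stock) for 30 min at 37C. cAMP was measured by HTRF (cAMP-d2 plus anti-cAMP antibody-K) after 30 min at room temperature.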
# Menin MLL FP FL: menin-MLL binding inhibition, fluorescein peptide; Fluorescence polarization, fluorescein-MLL peptide displacement from menin; FP activity change, % at 61.4 µM; 290,000 tested, under 10 active; AID 1766; inconclusive = falling polarisation curve, or a change in total fluorescence; inactive = total fluorescence flat and polarisation flat or rising; no compound was filed as active; the % refers to the polarisation; negative = inhibition;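 further: % of control where 0% means no effect; inhibitors lower the polarisation; unlabelled MLL peptide was the positive control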
# PINK1 modulator: changes PINK1 expression; Potency, µM (series often up to 76.6 µM), for the others: at the top dose activation (PINK1 increase), actives largely listed as activators; 410,000 compounds, 0.2% hits; PINK1 immunofluorescence, high-content cytometry, 24 h; active = well fitted activation curve with a large enough effect; inconclusive = small, poorly fitted or top-dose-only effect; inactive = flat fitted curve, though single readings scatter; cell line not stated here;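 further: potency means the concentration at half of the fitted maximal effect; % of control where 0% means no effect; nearly all actives have a fitted effect of over 65% in size; a mitochondrial uncoupler was the plate control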
#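 Measures PINK1 amount and localization on or inside mitochondria by immunofluorescence. Stable cells get compounds at 5 concentrations for 24 hours before fixation and staining; CCCP controls included.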
# Starred values were filed as active, the others as inactive; ? = inconclusive; nt = not tested or not shown; [ ] = another dose, or the depositor's remark.
SMILES,Sfp PPTase inh,ClpP mod,gsp antagonist,D2 ag,gsp ag,Menin MLL FP FL,PINK1 modulator
CCC(=O)Nc1ccc(C(=O)CSc2nc3ccc(C)cc3[nH]2)cc1,-3.9%,-3.9%,-9.5%,1.6,-20.7%,6.1,0.9%
Cc1ccc(Nc2c(-c3ccc(N(C)C)cc3)nc3ncccn23)cc1,-6.8%,nt,-13.6%,-2.7,7.1%[15.4 µM],?,4.3%
COc1ccc(OC2(C)CCN(Cc3ccc(-c4ccccc4)o3)C2)cc1 (configuration not stated),nt,4.1%,nt,-2.3,nt,nt,19.3%
CCN(CC)S(=O)(=O)c1ccc(N2CCOCC2)c(NC(=O)c2cc(-c3ccccn3)nc3ccccc23)c1,4.8%,-0.1%,-23.2%,2.3,18.4%[15.4 µM],6.6,-0.5%
COc1ccccc1OCCn1cc(C(=O)c2ccco2)c2ccccc21,2.4%,-2.8%,-11.9%,-1.1,2.1%,0.5,0.6%
c1cc2ccc3ccc(-n4cnnn4)c4ccc(c1)c2c34,-13.7%,28.2µM*,10.3%,-3.8,13.7%,9.5,0.1%
O=C1Cn2c(nc3ccccc32)N1c1ccccc1F,7.5%,0.9%,-0.2%,1.0,-29.9%,-0.5,0.1%[38.3 µM]
N/C(=N\OC(=O)CCCOc1ccc(Cl)cc1Cl)c1ccncc1,4.4%,1.8%,2.2%,-0.7,-5.2%[15.4 µM],-0.4,5.2%
CCOC(=O)c1cccc(Nc2ncnc3ccc(C)cc23)c1,10.2%,?,-24.0%,2.7,-1.5%,-1.5,-0.3%
CCc1nc2nc(C)c(NS(=O)(=O)c3ccc(Br)s3)c(=O)n2[nH]1,20.3%,nt,1.7%,3.9,-20.1%,-0.8,-1.8%
Cc1ccc(C(=O)CS(C)(=O)=O)cc1,1.2%,-0.9%,5.5%,-0.3,-9.8%,3.8,-1.6%
COc1ccc(-c2[nH]ncc2CN2CCSCC2)c(OC)c1,12.2%,1.4%,3.0%,-4.7,0.8%,-3.3,-0.1%
Cn1ncc([N+](=O)[O-])c1C(=O)Nc1nccs1,-1.4%,1.0%,16.0%,-2.3,-29.3%,-5.1,0.0%
Cc1csc(NC(=O)C(C)N2C(=O)c3ccccc3S2(=O)=O)n1 (configuration not stated),6.7%,0.7%,2.9%,-3.5,-31.4%,nt,0.2%
CC(C)NC(=O)CN(Cc1ccc(F)cc1)C(=O)CCC(=O)Nc1nccs1,0.0%,nt,0.9%,-2.9,20.5%,3.5,2.3%
COc1ccc(-c2nc(SC)n(C)c(=O)c2C#N)cc1OC,-8.9%,-6.5%,-9.2%,-2.9,?,1.6,0.4%
COc1ccc([C@@H]2[C@@H]3C(=O)N(C(C)(C)C)C(=O)[C@@H]3[C@]3(Cc4ccccc4)C(=O)N(c4cccc(Cl)c4)C(=O)N23)cc1,nt,1.4%,4.5%,0.4,-12.4%,nt,-0.3%
CCOC(=O)C1C(c2ccccc2O)NC(=O)NC1(O)C(F)(F)F (configuration not stated),14.0%,nt,10.5%,-1.0,3.0%,0.5,4.2%
CSc1nnc(NC(=O)c2nc(S(=O)(=O)Cc3ccccc3)ncc2Cl)s1,-9.7%,nt,31.6µM*,1.1,-10.2%[15.4 µM],nt,-1.5%
CC(C#Cc1c([C@@H](C)Oc2ccccc2)nnn1Cc1ccccc1)Oc1ccccc1 (some centres not stated),-7.8%,-1.1%,-3.3%,0.0,nt,2.4,1.1%
NC(=S)N=Nc1c(O)n(Cc2ccc(Br)cc2)c2ccccc12,-13.8%,-18.0%,-2.1%,-2.5,-6.7%,1.5,-0.1%
CSc1ccc(/C=C2\NC(=O)NC2=O)cc1,nt,-14.5%,0.2%,-3.5,-29.3%,nt,-0.7%
COc1ccc(CCN=C(NS(=O)(=O)c2ccccc2)c2ccccc2)cc1OC,21.0%,nt,-23.3%,-2.4,32.7%[15.4 µM],1.5,-0.6%
CSC1=NCCN1C(=O)c1cccc(Br)c1,9.3%,0.1%,6.4%,-3.0,-1.4%,0.9,1.6%
Cc1ccc2nc(-c3sc4nc(C)ccc4c3N)[nH]c2c1,-8.7%,-16.6%,3.1%,4.0,?,0.0,-1.2%
COc1cc(CCC(=O)OCC(=O)Nc2cccc(S(N)(=O)=O)c2)cc(OC)c1OC,2.6%,1.1%,17.7%,-0.1,-20.7%,1.4,1.4%
Fc1ccc(-n2nnc(-c3ccccc3Br)n2)cc1,12.9%,nt,0.2%,-1.9,-84.0%[inhibitor],-0.9,-2.1%
COC(=O)C1=C(C)OC(N)=C(C#N)C1c1ccccc1F (configuration not stated),-1.5%,-0.1%,-9.3%,-1.3,0.5%,6.8,-7.8%[38.3 µM]
CC(=O)c1sc(N/N=C\c2ccc(N(C)C)cc2)nc1C,-1.6%,-16.6%,-4.6%,0.5,27.7%,?,4.2%
COc1ccc(N2C(=O)CCC(C(=O)NCCCN3CCC(C)CC3)C2c2ccc(OC)c(OC)c2)cc1 (configuration not stated),15.7%,nt,3.5%,-1.7,7.5%,-1.5,-0.3%
O=C(CN1CCC(n2nnc3cc(F)ccc32)CC1)NNC(=O)c1ccccc1,19.2%,-15.2%,5.4%,-3.0,6.3%,1.5,nt
CCOC(=O)C1=C(COC(=O)/C=C/c2cccc(OC)c2)NC(=O)NC1C (configuration not stated),-20.0%,-15.4%,10.9%,-1.6,5.7%,nt,-1.6%
CC1Oc2ccccc2C=C1/C=N\NC(=O)c1cccnc1 (configuration not stated),6.3%,0.0%,-12.9%,3.1,-2.1%[15.4 µM],1.5,-1.0%
Cn1c(=O)oc2cc(S(=O)(=O)N3CCN(Cc4ccc5c(c4)OCO5)CC3)ccc21,5.2%,1.5%,?,4.5,-3.4%,1.7,nt
Cc1cccnc1NC(=O)CN1C(=O)COc2ccc(Cl)cc21,9.5%,-0.5%,5.1%,-2.5,-28.5%,-0.8,1.0%
Cc1nn(Cc2ccccc2Cl)c(Cl)c1/C=C/C(=O)OCC(=O)NC1CCS(=O)(=O)C1 (configuration not stated),4.4%,nt,1.9%,-6.1,16.5%[15.4 µM],1.1,1.1%
Cc1ccc(S(=O)(=O)Nc2c(C)nn(C)c2C)cc1C,nt,-1.0%,13.8%,-1.3,3.1%[15.4 µM],nt,-0.7%
O=C1N/C(=N\S(=O)(=O)Cc2ccccc2)S/C1=C/c1cccc([N+](=O)[O-])c1,-3.1%,0.3%,3.4%,-0.4,-8.2%,-1.1,-0.2%
COc1cccc(OC)c1OCCCCc1c(C)n[nH]c1C,-9.3%,-1.3%,-6.2%,-1.4,-14.7%,6.7,1.5%
Cc1onc(-c2c(Cl)cccc2Cl)c1/C(N)=N/OC(=O)C1CC1,-0.2%,1.9%,1.8%,-3.1,1.4%,-0.6,2.4%
CN(C)S(=O)(=O)N1C(=O)c2ccccc2C1=O,12.6µM*,2.2%,10.4%,-4.3,-26.0%,-1.0,2.5%
Cc1sc(NC(=O)Cn2[nH]c(=O)c3ccccc3c2=O)nc1-c1ccccc1,-4.6%,-5.4%,-6.4%,-0.6,33.1%,12.1,4.1%
COc1nc2ccccc2nc1CCC(=O)O,16.0%,nt,16.6%,-2.8,21.2%[15.4 µM],2.6,-0.4%
N#Cc1nc(-c2ccco2)oc1N1CCN(c2ccccc2)CC1,-7.1%,-5.8%,3.3%,0.2,-37.1%[inhibitor],-2.4,1.4%
CC1(C)CC(=O)C=C(c2ccc(Oc3ccccc3)cc2)C1=O,nt,0.5%,nt,-6.9,-56.6%[inhibitor],nt,1.6%
NC(=NCc1ccco1)NC(=O)c1ccccc1,5.9%,-0.6%,-0.3%,2.1,-6.3%,-0.1,0.1%
CN(C)c1ccc(/C=N/n2c(C3CCCCC3)n[nH]c2=S)cc1,-19.7%,nt,?,2.3,7.4%,3.9,2.3%
O=C(O/N=C1\CCS(=O)(=O)c2sccc21)c1ccccc1,7.9%,-1.0%,-3.1%,-1.5,2.5%,1.9,0.8%
COc1ccc(/C=C/C(=O)OCC(=O)Nc2ccc(OC)c(S(=O)(=O)N3CCCCC3)c2)cc1,-1.8%,-11.5%,8.7%,0.1,9.7%,0.6,-1.3%
COC(=O)CCC(=O)Nc1sc2c(c1C#N)CCCC2,-25.7%,28.2µM*,6.0%,-2.4,-3.7%,3.0,9.7%
CC(C)(C)C1CCc2onc(C(=O)Nc3cccnc3)c2C1 (configuration not stated),0.0%,-1.4%,2.8%,-1.4,8.9%,0.2,0.9%[38.3 µM]
C[C@H]1CN([C@@H](C)CO)C(=O)Cc2cc(NC(=O)CCC(F)(F)F)ccc2O[C@H]1CN(C)S(=O)(=O)c1ccc(F)cc1,nt,-0.6%,7.8%,-3.6,nt,nt,7.3%
Cc1cccc(C(=O)Nc2onc(C)c2C#N)c1,8.6%,0.0%,-18.4%,2.9,6.5%,6.0,-0.7%
Cn1c(=O)n(C)c2cc(NC(=O)C(F)(F)F)ccc21,8.0%,-2.1%,4.6%,-0.4,-13.6%,-5.1,-0.8%
Cc1ccc(S(=O)(=O)N(CC(=O)N/N=C/c2cccc(Cl)c2)c2cccc3cccnc23)cc1,7.8%,-0.5%,-8.9%[15.4 µM],-1.8,-10.2%,-2.5,4.3%
COc1ccc(Cn2c(CCC(=O)NCCC(C)C)nc3ncccc3c2=O)cc1,11.3%,nt,-6.1%,5.2,-1.3%,7.7,-2.4%
CN(C)c1ccc(-c2nn3c(-c4ccc(Cl)cc4)nnc3s2)cc1,-5.5%,?,8.1%,1.1,15.7%,0.5,0.8%
O=C(C1CC(=O)N(C2CCCCC2)C1)N1CCN(c2ccccc2)CC1 (configuration not stated),-0.2%,-2.9%,7.3%,1.1,?,nt,-0.5%
Cc1cc(C)c(C#N)c(N2CCN(c3ccc(F)cc3)CC2)n1,-12.3%,nt,-15.9%,-1.7,-25.3%,2.4,0.4%
Cc1ccc(NC(=O)CN(C)C(=O)c2ccccc2Sc2ccccc2C#N)cc1,nt,nt,-9.5%,2.1,4.8%[15.4 µM],nt,1.3%

# Bioassay records: PubChem, National Center for Advancing Translational Sciences (NCATS)
